Screening data (PubChem BioAssay)
KCNQ2 pot – potentiators of rat KCNQ2 potassium channel; 0.54% of 310,000 active; Potassium voltage-gated channel subfamily KQT member 2 (Rattus norvegicus), O88943; CHO-K1 KCNQ2, FluxOR thallium flux fluorescence; active compounds read high; AID 2239, 2010; B-score at 10 µM;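 active = fluorescence ratio B-score at least 3 SD of library B-scores, with initial fluorescence B-score within 3 SD, cut at about 5.3 in these data; same plate scores as AID 2156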;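 note: B-score of peak minus minimum over baseline fluorescence ratio after K+ and Tl+ stimulus; positive B-score means potentiation of KCNQ2 with more thallium influx and brighter signal; only the inactives scoring about 0 or higher are listed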
Target sequence (O88943 whole entry, looked up): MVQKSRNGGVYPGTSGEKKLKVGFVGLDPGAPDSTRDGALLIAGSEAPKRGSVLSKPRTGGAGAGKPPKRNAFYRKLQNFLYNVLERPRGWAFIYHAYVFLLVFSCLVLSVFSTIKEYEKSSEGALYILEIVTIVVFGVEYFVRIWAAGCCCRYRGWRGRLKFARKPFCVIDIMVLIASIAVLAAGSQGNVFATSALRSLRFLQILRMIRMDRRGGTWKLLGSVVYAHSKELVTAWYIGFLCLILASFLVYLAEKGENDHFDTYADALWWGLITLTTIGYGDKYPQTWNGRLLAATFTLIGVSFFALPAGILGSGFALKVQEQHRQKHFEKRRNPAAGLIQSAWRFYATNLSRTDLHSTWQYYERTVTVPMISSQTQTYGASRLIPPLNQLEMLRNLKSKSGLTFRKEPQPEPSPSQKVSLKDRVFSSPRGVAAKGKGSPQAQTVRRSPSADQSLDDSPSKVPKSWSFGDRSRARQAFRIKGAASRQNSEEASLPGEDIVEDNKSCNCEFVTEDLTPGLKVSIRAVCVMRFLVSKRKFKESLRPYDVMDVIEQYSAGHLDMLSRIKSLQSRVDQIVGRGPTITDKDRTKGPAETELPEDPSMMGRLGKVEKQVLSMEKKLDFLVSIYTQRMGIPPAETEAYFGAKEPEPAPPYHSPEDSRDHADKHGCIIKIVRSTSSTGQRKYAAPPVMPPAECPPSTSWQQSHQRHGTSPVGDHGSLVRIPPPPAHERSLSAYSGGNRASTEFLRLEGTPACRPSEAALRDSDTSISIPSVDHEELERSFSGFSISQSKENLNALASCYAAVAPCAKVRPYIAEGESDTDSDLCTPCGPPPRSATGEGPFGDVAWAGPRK
KCNQ2 pot baseline – further read-out of KCNQ2 pot, marked with its call; B-score; compound at 10 µM; measured here: initial fluorescence intensity artifact check;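 brightness before thallium and not channel activity; 0 = typical well and far values either way flag optical interference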
Active calls of the source: *. Not all compounds are listed, so the mix of outcomes need not match the whole.

SMILES	KCNQ2 pot	KCNQ2 pot baseline
CCOC(=O)c1ccc(-c2ccc(/C=C(\C#N)C(=O)NCC3CCCO3)o2)cc1 (configuration not stated)	0.04	1.2
CC/C(=N\NC(=O)c1c(C)nc2ccccn12)c1ccccc1	0.65	1.4
CCC(CC)NC(=O)Cc1ccccc1[N+](=O)[O-]	0.21	0.7
CCCCCCN=C(C)c1ccccc1O	0.38	-0.05
Clc1ncccc1-c1nnn(-c2ccccc2Br)n1	0.75	-0.05
CCOC(=O)c1nn(-c2ccccc2F)c2nc(-c3ccco3)c(C#N)c(=O)n12	0.98	0.03
CCOc1ccccc1N(CC(=O)Nc1ccc(S(=O)(=O)N2CCOCC2)cc1)S(C)(=O)=O	0.06	-2
CCN1C(=O)[C@H]2[C@@H](c3ccc(C)cc3)N3C(=O)N(c4ccc(C)cc4)C(=O)[C@@]3(Cc3ccc(Cl)cc3)[C@H]2C1=O	0.04	0.2
COc1ccc(/C=C/C(=O)NC(=S)NNC(=O)c2cc(OC)c(OC)c(OC)c2)cc1OC	1.5	-2
Cc1ccc2nc3c(c(N)c2c1)CCN3c1ccccc1	0.13	-0.31
Cc1ccc(NC(=O)c2ccccc2)cc1OC(=O)c1ccccc1	0.18	-1.7
COc1ccc(-n2c(Cc3cccn3C)nnc2SCC(=O)NCc2ccc(F)cc2)cc1	1.3	1.4
CCOC(=O)c1sc2cc([N+](=O)[O-])cc(SCCO)c2c1N	0.83	1
COc1ccc(C(C)C)cc1S(=O)(=O)NC1CCCC1	1.5	0.54
CC(C)N1CCN(Cc2cccs2)CC1CCO (configuration not stated)	0.64	-0.6
O=C(Cc1ccc(F)cc1)Oc1ccc(C(=S)N2CCCC2)cc1	0.89	-1.8
CCCCc1cc(=O)oc2c(C)c(OCC(=O)NCCN3CCOCC3)ccc12	2.7	0.32
CN(c1ccccc1)S(=O)(=O)c1ccc(C(=O)Nc2nccs2)cc1	0.69	0.34
O=C(CSCCO)Nc1ccc(C2CCCCC2)cc1	0.76	0.36
Cc1ccc(NC(=O)CNCc2ccccc2)cc1Br	0.97	0.34
Cc1ccc(C(=O)N/C(=C\c2ccc(Cl)cc2)C(=O)NCCN2CCOCC2)cc1	0.56	-0.94
C/C(=N\NC(=O)C(N)=O)c1ccc2c(c1)OCCO2	0.01	0.26
Cc1ccc(N2C(=O)CC(NNC(=O)Cc3ccc(F)cc3)C2=O)cc1Cl (configuration not stated)	1	-0.47
O=C(Nc1cccc(Cl)c1)C1CC1c1ccccc1 (configuration not stated)	0.27	-0.37
Cc1ccc(-n2c(-c3nn(C)cc3Cl)n[nH]c2=S)cc1	0.44	-2.7

The list goes on.
SMILES	KCNQ2 pot	KCNQ2 pot baseline
CCOC(=O)C(C)CC(C)C(=O)N1CCOCCOCCN(C(=O)C(C)CC(C)C(=O)OCC)CCOCC1 (configuration not stated)	0.55	0.13
Cc1cccc(NC(=O)CCCN2C(=S)NC(C)(C)CC2C)c1C (configuration not stated)	0.14	-0.05
NC(=O)CC(NC(=O)Cc1cccc2ccccc12)c1ccc(N2CCC(Br)CC2)c([N+](=O)[O-])c1 (configuration not stated)	2.1	-1.4
COc1ccc(/C=N/NC(=O)c2cc(-c3cccn3C)n[nH]2)cc1OC	0.34	0.15
Cc1c(C(=O)N2CCOCC2)sc(NC(=O)CCl)c1C#N	1.8	-1.6
O=C(O)CC(C(=O)Nc1cccc(C(F)(F)F)c1)C1CCCO1 (configuration not stated)	1.3	-0.2
COc1ccc([N+](=O)[O-])cc1NC(=O)CCC(=O)c1cccs1	0.08	1.6
COC(=O)c1sccc1NC(=O)Nc1ccc(F)cc1F	0.65	-0.68
Cn1c(C(=O)NC2CCCCC2)cc2c(=O)n(C)c3ccccc3c21	2.2	-1
CC(=O)c1ccc(NC(=O)COC(=O)C2C3CC4OC(=O)C2C4C3)cc1 (configuration not stated)	0.33	0.62
O=c1sc2ccccc2n1Cc1ccccc1	0.14	0.21
Cc1cc(C)nc(Sc2ccc(/C=C(\C#N)C(N)=O)o2)n1	0.32	0.05
Cc1ccnc(NC(=O)CCNC(=O)c2ccccc2Cl)c1	0.98	-0.92
Cc1nc(SCC(=O)c2cc3ccccc3oc2=O)c(C#N)c(-c2cccs2)c1C(=O)Nc1ccccc1	0.75	-0.67
Cn1ncc(Cl)c1C(=O)Nc1ccc(Cl)cn1	1.1	-0.03
Cc1ccc(-n2nc(-c3ccc(OC(F)(F)F)cc3)cc2N)cc1C	0.8	-2.9
O=[N+]([O-])c1ccc(-c2csc(NN=C3CCCC3)n2)cc1	0.13	0.81
CC1(C)Oc2ccc(C(=O)Nc3ccccc3)cc2N(CC#N)C1=O	1.8	-0.3
CCc1cccc(CC)c1NC(=O)Cn1c(-c2ccccc2Cl)nc2ccccc21	0.13	1.1
FC(F)(F)Oc1ccc(NC(=S)Nc2ccccc2N2CCOCC2)cc1	0.32	-0.8
CC(C)N(C(=NCc1ccccc1)NC(=O)c1ccccc1)C(C)C	0.91	-2.4
CCCCC#Cc1ccccc1CC(=O)Nc1ccccc1	7.1*	0.58*
Cn1c(SCC(=O)Nc2ccc(N3CCOCC3)c(Cl)c2)nnc1-c1ccccc1	1.7	0.85
FC(F)(F)c1nnc2ccc(NCn3nnc4ccccc43)nn12	0.68	0.49
Cc1cc(C)c(C)c(S(=O)(=O)N2CCN(CC(=O)Nc3sccc3C#N)CC2)c1C	1.2	-0.83

Exported field by field: four of the compounds above
molecule: O=C(O)CC(C(=O)Nc1cccc(C(F)(F)F)c1)C1CCCO1 (configuration not stated)
  KCNQ2 pot: 1.3
  KCNQ2 pot baseline: -0.2
molecule: COc1ccc([N+](=O)[O-])cc1NC(=O)CCC(=O)c1cccs1
  KCNQ2 pot: 0.08
  KCNQ2 pot baseline: 1.6
molecule: COC(=O)c1sccc1NC(=O)Nc1ccc(F)cc1F
  KCNQ2 pot: 0.65
  KCNQ2 pot baseline: -0.68
molecule: Cn1c(C(=O)NC2CCCCC2)cc2c(=O)n(C)c3ccccc3c21
  KCNQ2 pot: 2.2
  KCNQ2 pot baseline: -1

Following part:
SMILES	KCNQ2 pot	KCNQ2 pot baseline
CCN1C(=O)c2cccc3c(S(=O)(=O)N4CCCC4C(=O)O)ccc1c23 (configuration not stated)	0.93	0.29
CC(O)[C@H]1CNC(=O)C(=O)N1CCc1cccc(F)c1 (some centres not stated)	0.26	-1
COc1ccc(CCNC(=S)c2ccccc2)cc1OC	1.9	-0.77
Nc1c(Cl)c(Cl)nc(C(=O)OCC(=O)NC2CCCCC2)c1Cl	0.06	0.93
Cn1c(Cc2ccccc2)nnc1SCC(=O)Nc1ccc2c(c1)OCO2	0.23	0.4
O=C(COC(=O)c1ccccc1[N+](=O)[O-])NNC(=O)c1cccs1	0.4	3.2
CNC(=S)N(Cc1cc2ccc(OC)cc2[nH]c1=O)CC1CCCO1 (configuration not stated)	0.31	1.5
NC(=O)c1sc2nc(-c3ccccc3)ccc2c1N	1.1	0.5
Cc1ccc(-n2ccc(=O)c(C(=O)Nc3ccc(S(=O)(=O)N4CCOCC4)cc3)n2)cc1	0.25	0.74
CNC(=O)CN(c1cc(C)ccc1C)S(C)(=O)=O	0.72	0.09
CC1=C(C(=O)Nc2ccccc2)C(c2ccco2)C(C#N)=C(SCC(=O)OC(C)C)N1 (configuration not stated)	0.08	0.96
CC(C)(C)NC(=O)C1CCC(C)(C(=O)O)C1(C)C (configuration not stated)	1.4	-0.06
CCc1ccc(N(CC(=O)NCc2ccc(OC)cc2)C(=O)CCC(=O)Nc2ccccn2)cc1	1.9	-1.5
COc1ccc(C(=O)C2CCCN(C(=O)c3cc(C(C)C)no3)C2)cc1F (configuration not stated)	0.31	-0.53
COc1ccc2c(c1OC)C(=O)N(c1cccc(NC(C)=O)c1)C2	1.6	-0.72
CCOC(=O)CCn1c(CC(=O)OCC)nc2ccccc21	0.94	0.74
COc1ccccc1CN(Cc1cccnc1)S(=O)(=O)c1ccc(-n2cnnn2)c(OC)c1	0.39	0.18
C=CCNC(=O)CCNS(=O)(=O)c1ccc(Br)cc1	0.62	-0.83
CC(C)(C)c1cc(CN2CCN(CCO)CC2)cc(C(C)(C)C)c1O	0.02	-0.8
CC(C)CCN1CCNC(=O)C1CC(=O)N(C)CCCN1CCOCC1 (configuration not stated)	0.86	-1.2
Cc1cc2ncn(CC(O)COC3CCCCC3)c2cc1C (configuration not stated)	2.2	-3.3
COc1ccc(N(C(=O)c2csnn2)C(C(=O)NC2CCCC2)c2cccs2)cc1 (configuration not stated)	0.32	0.26
CN1CCN(C(=O)c2ccccc2NC(=O)C(C)(C)C)CC1	0.47	1
O=C(CCN1C(=O)[C@@H]2Cc3ccccc3CN2C1=O)N[C@H](C(=O)O)c1ccccc1	0.51	-0.27
CCc1ccc(NS(=O)(=O)c2ccc(OC)c(C)c2)cc1	0.16	1.7

4 of these compounds in a different format.
| canonical_smiles | KCNQ2 pot | KCNQ2 pot baseline |
| --- | --- | --- |
| CC(O)[C@H]1CNC(=O)C(=O)N1CCc1cccc(F)c1 (some centres not stated) | 0.26 | -1 |
| CCOC(=O)CCn1c(CC(=O)OCC)nc2ccccc21 | 0.94 | 0.74 |
| O=C(COC(=O)c1ccccc1[N+](=O)[O-])NNC(=O)c1cccs1 | 0.4 | 3.2 |
| COc1ccccc1CN(Cc1cccnc1)S(=O)(=O)c1ccc(-n2cnnn2)c(OC)c1 | 0.39 | 0.18 |

Remaining list, next part:
SMILES	KCNQ2 pot	KCNQ2 pot baseline
CC(C)(C)N=C1C([N+](=O)[O-])=CC=C2C1=NC1(CCCCC1)N2O	2.5	-0.27
CCCCCCN(C(=O)CCCCCN1C(=O)NC(c2ccc(-c3ccccc3)cc2)C(C(=O)OCc2ccccc2)=C1C)C(C(=O)NCCCC)c1ccc(O)c(C(=O)OC)c1 (configuration not stated)	0.36	0.57
C=CCN1C(=O)c2ccc(C(=O)OCC(=O)N3CCN(c4ccccc4)CC3)cc2C1=O	0.85	0.22
O=C(CCNC(=O)c1ccc(Cl)cc1)NCC(c1ccco1)N1CCCCC1 (configuration not stated)	2.5	0.22
Cc1cc(C)c2cc(C=O)c(Cl)nc2c1	0.56	-0.74
COc1ccc(C(=O)Nc2nnc(SCC(=O)NCc3ccco3)s2)cc1OC	0.29	-2.7
COCC1CCCN(Cc2cn[nH]c2-c2cc3ccccc3o2)C1 (configuration not stated)	1.2	0.1
COc1ccc(C(=O)Nc2ccc(NC(=O)C(C)C)nc2)cc1	0.01	1.4
COc1ccccc1-c1noc2ncnc(Nc3ccc4c(c3)OCO4)c12	0.47	0.76
CS/C(=N\S(=O)(=O)c1ccccc1)c1ccccc1	1.5	1.2
COC(=O)c1ccc(Cn2cc(C(F)(F)F)cc([N+](=O)[O-])c2=O)cc1	0.11	0.87
Cc1cc(CN2CCC(n3nccc3NC(=O)c3ccccc3C)CC2)n[nH]1	1.6	0.73
COc1ccc(-n2c(Cc3cccn3C)nnc2SCC(=O)NCC2CCCO2)cc1 (configuration not stated)	1.1	-0.58
c1ccc(CNc2nc3ccccc3n3cnnc23)cc1	0.3	0.29
CN(C)c1nc(C(N)=O)nc(N2CCOCC2)n1	1.8	-0.16
CN(CCO)c1ccc(-c2n[nH]c(=O)c3ccccc23)cc1[N+](=O)[O-]	1.6	-1.1
O=C(OC1CCCCC1=O)c1cc(=O)c2ccccc2o1 (configuration not stated)	1.8	-0.54
O=C(c1ccc2c(=O)n(C3CCCC3)c(=S)[nH]c2c1)N1CCCCCC1	0.24	-0.2
CCCn1c(SCC(=O)N2CCN(C(C)=O)CC2)nc2sc3c(c2c1=O)CCC3	6.1*	0.44*
COc1cccc(-c2cc(N)nn2C(=O)Nc2ccc(Cl)cc2)c1	0.73	-1.5
COc1ccc(OC)c(/C=N/NC(=O)CC(=O)NCc2ccccc2)c1	1.7	1
CN1CCN(C2=C(Cl)C(=O)N(Cc3ccccc3)C2=O)CC1	0.36	-0.72
COc1ccc(/C=C/c2nc(S(=O)(=O)c3ccccc3)c(NCCCN(C)C)o2)cc1OC	0.9	0.28
O=C(Nc1nc(-c2ccc(F)c(F)c2)cs1)c1cnccn1	0.47	-0.55
O=C(Nc1cccs1)Nc1ccccc1Cl	1.8	-1.7

(listing goes on)
SMILES	KCNQ2 pot	KCNQ2 pot baseline
CCOC(=O)COC(=O)c1ccc(Oc2cc(C)nc(SC)n2)cc1	0.25	0.2
OC1(c2ccc(Cl)cc2)CCN(Cc2cn[nH]c2-c2ccc(F)cc2)CC1	1.4	-0.88
CCC1CCCCN1c1nc2c(C=O)c(C)nn2c2ccccc12 (configuration not stated)	1	-1.4
Cc1cc(C)n2ncc(C(=O)Nc3ccc(Cl)c(Cl)c3)c2n1	0.06	-1.6
Cc1ccc(S(=O)(=O)NCc2cn3c(C)csc3n2)cc1	0.73	0.68
Cc1onc(-c2c(Cl)cccc2Cl)c1NC(=O)N(C)N	2.3	0.64
COc1cc2c(cc1NC(=O)CC1SC(N3CCCC3)=NC1=O)oc1ccccc12 (configuration not stated)	0.66	-2.9
C=CCNC(=O)c1onc(CSc2ccc(F)c(F)c2)c1C(=O)O	0.31	1.1
CC(C)CC[n+]1ccn(-c2nc3ccccc3nc2[N-]S(=O)(=O)c2ccc(Cl)cc2)c1	0.45	0.09
CCCOc1ccc(/C=c2\sc3ncnn3c2=O)cc1	0.44	0.85
COc1ccc(N2Cc3ccccc3C2)cc1Cl	0.12	0.9
COC(=O)c1ccc(CSc2nc3sc(C)c(C)c3c(=O)[nH]2)cc1	1.7	-2
Cn1cc(C(=O)NC2CCCCC2)c(=O)c2cc(S(=O)(=O)N3CCOCC3)ccc21	0.26	0.72
CCOC(=O)c1c(NC(=O)COC(=O)Cc2c[nH]c3ccccc23)sc(C(=O)N(C)C)c1C	0.85	-2.2
CSCC[C@H](NC(=O)COc1ccc(Cl)cc1)C(=O)N1CCC2(CC1)NCCc1[nH]cnc12	0.66	-0.19
